Source: PubChem BioAssay
Autofluor counter: flagged as autofluorescent in microsphere protease counterscreen; compound autofluorescence counterscreen, microsphere flow cytometry; hits give high values; fluorescence intensity (test concentration not listed); 3.1% of 360,000 active; AID 624483;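 active = at least 3 SD above the mean of all compounds, about 16000 in these data; inconclusive = too few beads counted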;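 also: 100 nL of 1 mM stock went into each well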
ugtP null kill: compounds lethal to S. aureus RN4220 ugtP deletion mutant. OD600 growth, 16 h; some inactives read as strong as hits. growth inhibition, % (test concentration not listed). 0.54% of 330,000 active;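 active = z-score under -3 and OD600 up to 0.15 on both plates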;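 also: plate controls were untreated wells for no effect and antibiotic for full effect; wells of about 80 µL received 100 nL stock; the first replicate is given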
BJeLR viability: kills HRASV12-expressing BJeLR cells. AID 1554. 0.17% of 300,000 active. inhibition, % (test concentration not listed). BJeLR (HRASV12) viability, CellTiter-Glo ATP luminescence, 48 h; reference of the scale not given here;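 active = replicate mean above 50%; inconclusive = above 50% but judged a plate artefact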;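 also: 50 nL library stock added to about 25 µL; numbers are from one replicate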
Mtb hypoxia inh: inhibitors of hypoxia-regulated fluorescent reporter in Mycobacterium tuberculosis; 0.1% of 300,000 active; fluorescence inhibition, % (concentration not given with the values); M. tuberculosis hypoxia-regulated fluorescent reporter, fluorescence; AID 1159583;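 active = 35 to 45% if threefold the growth effect, above 45% if 1.5-fold the growth effect; inactive = the rest, general growth blockers included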;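 also: wells of about 50 µL received 100 nL stock; 0% = vehicle wells and 100% = reference inhibitor wells; whole bacteria with a GFP reporter of the hypoxia response; strong numbers were not always called active; many hits fall short of the cut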
PrP UTR inh: inhibition of PrP 5' UTR reporter expression; 0.35% of 340,000 active; cell-based PrP 5' UTR mRNA reporter, plate reader; inhibition, % (test concentration not listed); AID 488862;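 active = every replicate at 50% or more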;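 also: 0 = median of the neutral control wells; tested in H4 reporter cells; numbers are from one replicate; inactives centre near -14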
RN4220 kill: S. aureus RN4220 growth inhibition. OD600, 16 h. inhibition, % (concentration not given with the values). 0.33% of 330,000 active. AID 1259311;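 active = z-score of -3 or lower and OD600 up to 0.18 on both plates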;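 also: plate controls were untreated cells for no effect and reference antibiotic for full effect; stock transfer was 100 nL into about 80 µL; one replicate is shown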
Mtb hypoxia inh growth: recorded beside Mtb hypoxia inh, whose call it bears; growth inhibition, %; measured here: M. tuberculosis growth (absorbance);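 0% = vehicle and 100% = reference antibiotic; read after six days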
Active calls of the source: *; ? = inconclusive; / = no result given.

Order of values – Autofluor counter	ugtP null kill	BJeLR viability	Mtb hypoxia inh	Mtb hypoxia inh growth	PrP UTR inh	RN4220 kill
- CCCn1nc(CC(=O)O)c2ccccc2c1=O
    2754	-5	-1	/	/	-16	5.1
- O=C(NOCc1ccccc1)c1ccc(Cl)cc1Cl
    3863	5	/	1	2	36	2.0
- COC(=O)c1cc2ccccc2n1Cc1ccc(Cl)nc1
    2889	14	2	18	-5	-12	-5.6
- O=C(NCCCN1CCOCC1)C(Sc1ccccc1)c1ccccc1 (stereo unspecified)
    2451	-5	13	3	-3	-16	2.3
- CCN(CC)CCCNC(=O)C1CCN(C(=O)c2oc3cc4sc(N(C)C)nc4cc3c2C)CC1
    4308	11	11	4	-9	-23	0.9
- CCOC(=O)C1=C(C)NC(=O)CC1c1cc(OC)c(OC)cc1Br (stereo unspecified)
    3685	-4	-8	-8	8	-22	-4.8
- Cc1ccc(NC(=O)CC(NCCN2CCOCC2)C(=O)O)cc1Cl (stereo unspecified)
    /	14	-3	6	-8	-20	2.7
- Cc1ccc2c(c1)CCCN2N=O
    9880	5	-2	6	6	-17	7.1
- CCn1c(-c2ccc(N)cc2)nc2ccccc21
    5332	-8	1	/	/	-13	8.2
- CCOC(=O)C1=C(CSc2nc3c(cc2C#N)CCC3)OC(N)=C(C#N)C1c1ccccc1 (stereo unspecified)
    10740	2	1	12	2	-10	2.3
- CC(=O)c1ccc(NC(=O)C(=O)c2cn(CC(=O)N3CCCCC3)c3ccccc23)cc1
    7824	5	-7	-3	2	-26	5.7
- CC(C)C(NC(=O)c1ccc(F)cc1)C(=O)N1CCN(c2ccccn2)CC1 (stereo unspecified)
    6475	5	/	7	3	-10	3.7
- COc1cc2c(cc1OC)C(c1ccc(N(C)C)cc1)NCC2 (stereo unspecified)
    3251	3	15	8	3	-5	-0.2
- COc1ccc(CCNC(=O)C/C(C)=N/NC(=O)c2ccc(N)cc2)cc1OC
    2083	/	-14	/	/	-10	/
- O=[N+]([O-])c1cccc(Cl)c1CSc1ccccn1
    2709	3	-18	9	3	-45	4.7
- COc1ccc(CCN2C(=O)NC(NC(=O)CC(C)C)(C(F)(F)F)C2=O)cc1OC (stereo unspecified)
    9388	/	-10	/	/	-29	/
- Cc1ccc(NS(=O)(=O)c2ccc(C(=O)N3CCCC(C(F)(F)F)C3)cc2)cc1 (stereo unspecified)
    6527	-9	4	1	0	-24	8.1
- COc1cc(C=NNC(N)=O)ccc1OCC(=O)Nc1cc(C)c(C)cc1Br
    /	11	/	8	11	/	8.3
- O=C(Nc1nccs1)c1nc[nH]c1C(=O)N1CCc2ccccc2C1
    3779	-10	/	-5	7	-10	4.8
- CCN(CC)S(=O)(=O)c1ccc(NN=C2CCN(C)CC2)c([N+](=O)[O-])c1
    3581	5	-5	-7	-1	-50	3.1
- O=C(O)C(Cc1ccc(F)cc1)c1ccccc1 (stereo unspecified)
    3775	4	-5	5	18	-7	0.9
- CC1CCN(C(=S)c2ccccc2O)CC1
    12844	-1	2	9	17	-11	6.4
- CCc1ccccc1NN=C(C)c1c(O)cc(C)oc1=O
    /	5	/	-4	8	/	5.1
- CCOc1ccc(N(Cc2ccc(OC)c(OC)c2)C(=O)c2ccco2)cc1
    3571	20	2	-1	-2	-30	5.1
- Cc1cc2cc(CNC(=O)c3ccc(S(=O)(=O)N4CCCCC4)cc3)ccc2[nH]1
    3901	-7	-10	0	6	-2	-8.5
- O=C(COC(=O)Cc1ccc(Cl)cc1)NCc1ccco1
    4061	-3	/	11	6	-6	6.9
- COc1cc(CN(CC2CCCO2)C(=O)c2ccco2)cc(OC)c1OC (stereo unspecified)
    5034	-7	7	2	0	-28	-3.7
- CCN(C(=O)CSc1nnc(C(C)N(C)C)n1-c1ccc(F)cc1)C1CCS(=O)(=O)C1 (stereo unspecified)
    8713	3	/	9	-6	-16	2.6
- c1ccc(Cc2cc[n+](Cc3ccccn3)cc2)cc1
    4898	10	-8	8	6	-11	3.9
- CCOc1ccccc1C(=O)N(CN1CCCC1=O)c1cccc(Cl)c1
    21571*	-1	-5	5	4	-2	4.5
- COc1ccc(C2=NS(=O)(=O)N(C)C(C(=O)NC3CCCC3)=C2)cc1
    5940	6	-1	-1	8	4	13
- COc1ccccc1C1CCN(C(=O)c2ccc(C(C)(C)C)cc2)CC1
    4539	24	0	15	3	-13	7.8
- CN1CCN(S(=O)C23CC4CC(CC(C4)C2)C3)CC1 (stereo unspecified)
    10670	-6	-4	0	6	-9	-2.9
- CC(C)C(=O)N1CCN(c2ccc([N+](=O)[O-])cc2Cl)CC1
    2288	5	10	5	13	-17	8.0
- CC(=O)NC(CC(=O)Nc1nccs1)c1ccccc1 (stereo unspecified)
    5205	-11	5	-4	2	-19	1.2
- COCC(C)NC(=O)C1CC(=O)N(c2ccc(C)cc2)C1 (stereo unspecified)
    5601	-3	-7	-6	-11	0	0.1
- COc1ccc(Nc2nc3ccc(C)cn3c(=O)c2/C=N/O)cc1
    4992	/	10	/	/	-10	/
- COC(=O)c1nc(-c2ccccc2)n[nH]1
    9561	-15	-4	16	4	-23	5.6
- CCOc1ccc2nc(CN3CCN(Cc4ccccc4OCC)C(CCO)C3)ccc2c1 (stereo unspecified)
    4009	-1	-1	0	15	-35	-2.4
- CCCCn1c(NC(=O)C2CCCCC2)nc2ccccc21
    2251	-7	6	/	/	8	15
- CCOc1ccccc1NC(=S)Nc1ccc2cn[nH]c2c1
    4204	7	0	0	9	-4	16
- NC1=NC2(CCCCC2)N=C(Nc2ccc(Br)cc2)N1
    2110	-8	0	-15	0	-3	-1.4
- CCc1cccc(CC)c1NC(=O)C(NS(=O)(=O)c1cccs1)c1ccccc1 (stereo unspecified)
    2544	-1	-1	3	4	-14	7.2
- C=CCn1c(SCC(=O)c2ccc(OC)cc2)nnc1C(C)NC(=O)c1cccs1 (stereo unspecified)
    9189	-4	12	-2	15	/	3.4
- CC(=O)Nc1ccc(CN2CCN(Cc3ccc(C)cc3)C(CCO)C2)cc1 (stereo unspecified)
    5420	-2	3	3	12	-29	3.4
- O=C(COC(=O)CCNS(=O)(=O)c1ccccc1)NNC(=O)c1ccccc1
    ?	4	-11	12	8	-12	5.1
- CN(C)C1=NCCN1CC1CCCC1
    3840	-1	/	5	6	-15	4.5
- COc1cc(OC)c(NC2=NCCCCC2)cc1Cl
    4092	6	10	-1	-4	-15	-2.2
- COc1ccc(CCNC(=O)CC(=O)NCCc2ccc(OC)cc2)cc1
    3896	0	2	19	4	-18	0.1
- CSc1ccccc1C(=O)C1CCCN(Cc2cccc(C)n2)C1 (stereo unspecified)
    2965	-2	-1	-16	6	-6	0.0
- CCn1c2ccccc2c2cc(NC(=S)N3CCOCC3)ccc21
    2576	-1	0	/	/	-44	2.8
- CCN1CCN(CCCN(Cc2ccco2)C(=S)Nc2ccc(Cl)c(C)c2)CC1
    3579	-1	2	8	5	-31	-2.5
- COc1cccc(C=NN2CCN(c3ccccc3OC)CC2)c1
    /	7	/	4	6	/	-0.2
- COc1ccc(NC(=O)c2ccccn2)cc1
    2488	9	20	/	/	8	3.9
- CCOC(=O)C1(Cc2ccccc2C)CCCN(C(=O)CCc2cccnc2)C1 (stereo unspecified)
    5124	-4	-1	3	10	5	2.3
- Cc1ccccc1S(=O)(=O)Cc1ccc(C(=O)NC2CC2)o1
    5393	1	-7	9	-2	-11	4.5
- COc1ccc(-c2cc(C(=O)OCC(=O)N3CCCCC3)c3ccccc3n2)cc1OC
    3836	-1	/	-18	11	-28	-1.4
- CCOc1ccccc1OCCN1CCC(Cc2ccccc2)CC1
    2034	-2	8	-1	2	-14	2.6
- CCNC(=S)/C(=C(/[O-])c1ccc([N+](=O)[O-])cc1)[n+]1ccccc1
    4322	-4	11	-8	-7	-17	2.9
- C=CCOc1ccc2ccccc2c1C=NO
    /	21	/	-9	4	/	5.0

(more compounds)
Order of values – Autofluor counter	ugtP null kill	BJeLR viability	Mtb hypoxia inh	Mtb hypoxia inh growth	PrP UTR inh	RN4220 kill
- CCOC(=O)C1=C(CSc2nc3ccccc3s2)NC(=O)NC1c1cc(C)ccc1C (stereo unspecified)
    10618	-26	6	-3	2	-10	4.7
- Cc1nn(-c2ccccc2)c2sc(C(=O)NC3CCCCC3)cc12
    8672	-25	9	1	9	-8	-3.3
- Cc1ccc(/C(O)=C2/C(=O)C(=O)N(CCCn3ccnc3)C2c2cccnc2)cc1 (stereo unspecified)
    4402	4	/	-3	-1	-4	1.7
- Cc1ccc(C)c(C(=O)CSc2n[nH]c(-c3ccncc3)n2)c1
    4153	0	4	9	3	-11	9.5
- COc1ccc(OC)c(S(=O)(=O)N2CCCC(C)C2)c1 (stereo unspecified)
    5939	-8	3	4	5	-5	-1.8
- Cc1ccc(NC(=O)C2CCC(N3C(=O)C4CCCCC4C3=O)CC2)cc1 (stereo unspecified)
    4563	4	6	1	0	-21	0.6
- COc1cc(NC(=O)c2cc(-c3ccccc3)nc3c2cnn3C(C)C)cc(OC)c1OC
    4004	-4	/	3	2	-24	3.7
- Cc1ccc(S(=O)(=O)NCCC(=O)NCCN2CCCCCC2)cc1
    10282	7	-3	5	-1	-11	2.1
- CC(C)(C)c1ccc(S(=O)(=O)Nc2cccc(C3OCCCO3)c2)cc1
    2574	4	7	-7	-3	-31	7.3
- CCOC(=O)C1CNc2cc(S(=O)(=O)CC)ccc2O1 (stereo unspecified)
    4171	5	15	3	-4	-8	2.1
- ClCCCc1cn(CC2CCC(C3CCC(Cn4cc(CCCCl)nn4)O3)O2)nn1 (stereo unspecified)
    /	-1	/	6	11	/	2.2
- CCn1nc(C)cc1C(=O)N1CCCC(C(=O)c2ccc3ccccc3c2)C1 (stereo unspecified)
    4460	-1	-7	-8	-14	-13	2.9
- CCOc1ccc(NS(=O)(=O)c2ccc(C(=O)N3CCN(c4ncccn4)CC3)cc2)cc1
    4210	4	0	-1	-1	-10	2.2
- NS(=O)(=O)c1ccc(NC(=O)c2cc(Cl)ccc2Cl)cc1
    2083	3	9	-3	0	16	-2.0
- CC(=O)Nc1nnc(CCS(=O)(=O)c2ccc(C)c(C)c2)s1
    1972	-6	10	-3	4	-22	-4.2

Single records, as listed above. Screens in order: Autofluor counter, ugtP null kill, BJeLR viability, Mtb hypoxia inh, Mtb hypoxia inh growth, PrP UTR inh, RN4220 kill
Results for `Cc1ccc(C)c(C(=O)CSc2n[nH]c(-c3ccncc3)n2)c1` → 4153, 0, 4, 9, 3, -11, 9.5
Results for `Cc1ccc(NC(=O)C2CCC(N3C(=O)C4CCCCC4C3=O)CC2)cc1` (stereo unspecified) → 4563, 4, 6, 1, 0, -21, 0.6
Results for `Cc1ccc(S(=O)(=O)NCCC(=O)NCCN2CCCCCC2)cc1` → 10282, 7, -3, 5, -1, -11, 2.1

Later entries:
Order of values – Autofluor counter	ugtP null kill	BJeLR viability	Mtb hypoxia inh	Mtb hypoxia inh growth	PrP UTR inh	RN4220 kill
- CCOC(=O)c1c(NC(=O)Cc2cccs2)sc(C(=O)NC2CCCC2)c1C
    4655	2	-7	12	11	-8	5.1
- COc1ccc(N(CCC#N)C(=O)/C(C#N)=C\c2cccs2)cc1
    6102	3	1	4	7	-6	2.2
- COc1ccc(N2C(=O)[C@H]3[C@@H](C2=O)C2c4ccccc4C=NN2[C@H]3C(=O)C(C)(C)C)cc1 (stereo partly specified)
    3634	12	-5	0	-1	-15	3.2
- COc1cccc(S(=O)(=O)NCc2ccc(C(=O)Nc3ccc(C)cc3)cc2)c1
    2821	-1	4	/	/	-31	3.6
- COc1cc(C(=O)NCC2CCCO2)ccc1OCc1ccccc1Cl (stereo unspecified)
    4536	-6	3	-10	-6	-5	-1.9
- COC(=O)C1CCN(CC(=O)Nc2ccccc2Sc2ccccc2)CC1
    2548	-2	-1	5	13	-5	9.9
- C=CCOc1c(Br)cc(/C=N/n2c(CC)n[nH]c2=S)cc1Br
    2520	/	3	/	/	-6	/
- O=C(NCc1ccc(Cl)cc1)C1CCN(c2nnc(N3CCCC3=O)s2)CC1
    6030	-4	-7	5	1	-27	-15
- O=C(CN1C(=O)COc2ccc(S(=O)(=O)N3CCCCCC3)cc21)NCc1ccc(F)cc1
    6111	-3	-6	/	/	-2	6.0
- O=c1[nH]c(=S)n(C2CC2)c(O)c1C=NCCN1CCOCC1
    4434	6	7	16	11	-14	-0.8
- Cn1c(NC(=O)c2ccc(F)cc2)c(-c2ccccn2)c(=O)c2ccccc21
    6216	2	-2	7	11	/	2.5
- CC(=O)c1ccc(NC(=S)NC(=O)/C=C/c2ccco2)cc1
    /	33	2	15	15	-22	-3.4

Rows are unselected. About 4.1% of those tested had a hit in this group.
